# RanGTP-Impb inh: disruptors of Ran-importin-beta complex formation – biochemical, FRET, CFP-Ran, YFP-importin-beta, homogeneous, primary screen; inhibition, % (test concentration not listed); 300,000 compounds, 1.1% hits; cell-free CFP-Ran/YFP-importin-beta FRET ratio;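 active means most replicates above 15%; inconclusive means exactly half above 15%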;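 further: 0% = DMSO wells and 100% = Ran loaded with GDP instead of GTP; wells of about 40 µL received 100 nL stock; the first replicate is given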
# Beta apoptosis: beta cell apoptosis inhibition; INS-1E cytokine-induced death, ATP luminescence, 48 h; percent of positive-control rescue, neutral wells zero; protection from apoptosis, % (concentration not given with the values); 300,000 compounds, 0.8% hits; AID 435005;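 active means all replicates at 75% or more, or half of them and the mean; inconclusive means half reach 75% but not the mean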;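 further: 0% = cytokine-treated negative control wells and 100% = positive control rescue; higher means more ATP so stronger rescue from cytokine killing; wells of about 40 µL received 100 nL stock; the first replicate is given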
# LANA-H2A inh: blocks KSHV LANA binding to histone H2A/H2B | inhibition, % (test concentration not listed) | 320,000 compounds, 0.6% hits | cell-free LANA-H2A/H2B peptide, fluorescence polarization; in the data active means inhibition mostly above about 10%, no sharp cut-off; inactive means mostly below about 6.7%;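 further: stock transfer was 7.5 nL into about 10 µL; 0% = median of vehicle wells and 100% = median of positive control wells; one replicate is shown; the record names a cut of 25% in any replicate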
# Target sequence (Q9QR71 whole entry, looked up): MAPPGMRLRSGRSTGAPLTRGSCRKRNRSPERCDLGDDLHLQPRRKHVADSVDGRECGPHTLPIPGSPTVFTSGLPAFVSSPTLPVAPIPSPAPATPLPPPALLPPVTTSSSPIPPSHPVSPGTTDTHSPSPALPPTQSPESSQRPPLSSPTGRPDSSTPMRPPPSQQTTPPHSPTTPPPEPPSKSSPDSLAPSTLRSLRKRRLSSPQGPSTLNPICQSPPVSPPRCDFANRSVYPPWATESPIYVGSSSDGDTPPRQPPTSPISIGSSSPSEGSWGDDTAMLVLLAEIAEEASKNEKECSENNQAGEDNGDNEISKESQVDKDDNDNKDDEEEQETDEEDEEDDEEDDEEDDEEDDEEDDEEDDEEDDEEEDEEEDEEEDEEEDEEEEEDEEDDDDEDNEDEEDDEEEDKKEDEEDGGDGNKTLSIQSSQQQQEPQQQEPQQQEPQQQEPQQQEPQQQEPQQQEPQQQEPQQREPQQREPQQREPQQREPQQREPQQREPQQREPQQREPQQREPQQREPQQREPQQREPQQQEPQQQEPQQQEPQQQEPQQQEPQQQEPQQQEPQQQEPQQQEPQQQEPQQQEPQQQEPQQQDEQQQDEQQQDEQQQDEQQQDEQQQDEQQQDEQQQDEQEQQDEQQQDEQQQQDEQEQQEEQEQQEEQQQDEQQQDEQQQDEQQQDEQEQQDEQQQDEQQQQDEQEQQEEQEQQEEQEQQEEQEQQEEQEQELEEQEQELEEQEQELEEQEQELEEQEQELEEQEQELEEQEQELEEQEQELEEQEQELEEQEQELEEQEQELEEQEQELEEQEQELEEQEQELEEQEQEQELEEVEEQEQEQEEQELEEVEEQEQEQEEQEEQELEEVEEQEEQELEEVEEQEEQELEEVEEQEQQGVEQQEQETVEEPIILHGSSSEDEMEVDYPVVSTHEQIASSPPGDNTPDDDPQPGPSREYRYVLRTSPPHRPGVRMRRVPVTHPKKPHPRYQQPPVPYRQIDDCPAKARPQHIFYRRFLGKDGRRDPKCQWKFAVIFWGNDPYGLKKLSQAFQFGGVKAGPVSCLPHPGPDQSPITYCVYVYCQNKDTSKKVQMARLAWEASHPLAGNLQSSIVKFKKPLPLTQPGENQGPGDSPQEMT
# Calb FLC: C. albicans growth modulation with fluconazole. C. albicans CaCi-2 (fluconazole-resistant clinical isolate) + fluconazole, Alamar Blue growth, 48 h. growth inhibition, % (concentration not given with the values). 300,000 compounds, 0.57% hits. AID 1979;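 active means most replicates above 75%; inconclusive means exactly half above 75%; inactive means most below 75%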;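 further: all wells also contain fluconazole at 8 µg/ml as a sub-toxic cotreatment; 0% = median of DMSO wells and 100% = median of geldanamycin control wells; wells of about 8 µL received 7.5 nL stock; the first replicate is given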
# T cruzi inh: blocks replication of Trypanosoma cruzi | T. cruzi beta-gal in NIH3T3, luminescence, 90 h | inhibition, % (test concentration not listed) | 300,000 compounds, 1.4% hits;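 active means mean inhibition across valid replicates above about 55%, limit read from the data; inconclusive means mean below that limit but half or more replicates reach it; inactive means mean below it, under half of replicates reach it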;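 further: signal also drops with host cell toxicity which is not excluded here; 0% = plate median of DMSO wells and 100% = zero luminescence signal; higher percent means less beta-gal luminescence so fewer parasites; stock transfer was 50 nL into about 50 µL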
# Bfl-1 A1 inh: inhibitors of the anti-apoptotic protein A1, read as caspase activation. MEF A1-2A-BIM cells, Caspase-Glo 3/7 luminescence, 3 h; percent of clofoctol response, vehicle zero. caspase activation, % (concentration not given with the values). 330,000 compounds, 0.066% hits;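 active means over half of replicate activation scores above 10%, or exactly half above 10 with the replicate mean above 10; inconclusive means replicate mean below 10 yet half the replicates above 10; inactive means over half of replicates below 10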;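 further: wells of about 30 µL received 50 nL stock; many hits fall short of the cut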
# B2AR ag: agonists of human beta-2 adrenergic receptor inducing internalization; P07550; Am2.2-beta2AR cells, FAP receptor internalization, flow cytometry; reference of the scale not given here; response, % (test concentration not listed); 340,000 compounds, 0.43% hits;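 active means response above a set limit, near 3 SD of response in nonfluorescent compounds, cut at about 42% in these data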;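 further: stock transfer was 100 nL into about 11 µL; a reference agonist was the positive control; negative values mostly stem from fluorescent compounds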
# UCH37 inh: inhibitors of human deubiquitinating enzyme UCH37; Q9Y5K5; inhibition, % (test concentration not listed); purified proteasome/UCH37, Ub-AMC cleavage fluorescence; 330,000 compounds, 0.33% hits;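 active means mean of two replicates above 20%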;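 further: 0% = compound-free wells with enzyme and 100% = wells lacking proteasome; stock transfer was 100 nL into about 20 µL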
#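 Reagent: Ub-AMC substrate; assay system: Proteasome-associated human UCH37 deubiquitinase; controls: no-proteasome and no-compound wells; read-out: % inhibition of Ub-AMC cleavage fluorescence; timing: 30 min preincubation with enzyme, 25 min cleavage at room temperature; signal: AMC fluorescence from Ub-AMC cleavage, excitation 355 nm, emission 460 nm; buffer or medium: Tris-HCl pH 7.4 plus ovalbumin, ATP-MgCl2, DTT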
# An asterisk follows results filed as active; ? = inconclusive; / = no result given. Rows are unselected (roughly 4.3% active in at least one column).
SMILES,RanGTP-Impb inh,Beta apoptosis,LANA-H2A inh,Calb FLC,T cruzi inh,Bfl-1 A1 inh,B2AR ag,UCH37 inh
CCNc1nc(NCC)n2c(SCC(=O)NCC3CCCCC3)nnc2n1,1.0,-3,-0.2,3,-22,-0.1,0,0.8
C=CCNc1nc2ccccc2nc1NS(=O)(=O)c1cccs1,4.1,0,-1.5,?,-4,-0.5,-4,-2.4
CC1=C(C(=O)O)N2C(=O)C(NC(=O)c3ccccc3Cl)C2SC1 (stereo not given),0.1,-5,-3.3,1,5,0.9,-4,0.6
COc1ccccc1S(=O)(=O)Cc1ccc(C(=O)NC(C)c2ccc3c(c2)OCCO3)o1 (stereo not given),-2.0,-1,0.9,-9,0,0.9,-4,-0.8
Cc1ccc2[nH]c(CCN(C)C)c(CC#N)c2c1,3.8,-8,5.3,-1,40,-0.3,-6,2.5
COC(=O)C1=C(C)OC(N)=C(C#N)C1c1cc(C)sc1C (stereo not given),-0.4,-7,-3.4,0,-18,0.9,-2,-3.0
OCC[C@H]1C[C@H](O)[C@@H](O)[C@@]2(CCCCO2)O1,-1.9,-5,-6.2,-2,-18,-1.2,0,1.8
Cc1cccc(-n2c(-c3ccoc3C)n[nH]c2=S)c1,4.9,-6,0.2,9,-17,-0.1,1,2.8
Cc1ccc(SCc2ccc(C(=O)Nc3cc([N+](=O)[O-])ccc3C)cc2)cc1,0.4,/,-2.0,4,23,-0.9,3,1.3
CCn1cc(C2=NC(C)(C)CO2)c2ccccc21,-0.5,-1,-1.3,12,-2,0.1,8,-0.1
COc1ccc(N2CCN(S(=O)(=O)CCNC(=O)/C=C/c3ccc4c(c3)OCO4)CC2)cc1,0.3,/,0.9,3,4,0.7,3,-4.4
O=C(NC(Cc1ccccc1)c1ccc2c(c1)OCCCO2)c1ccccc1 (stereo not given),?,-2,0.6,7,10,-0.2,-8,0.7
CCCn1nc(C(=O)Nc2nnc(C3CC3)s2)c2ccccc2c1=O,/,2,0.1,/,/,0.4,-2,1.8
O/N=C/c1ccc(OCc2ccccc2F)c(Cl)c1,4.0,6,-3.8,?,3,-0.2,0,/
Cn1cccc1CNC(=O)Nc1ccc(Cl)c(Cl)c1,-2.3,-1,0.7,-13,14,-1.8,0,-0.7
Cc1cccc(C)c1NC(=O)NN=C1CCCCC1,3.8,-3,-2.2,-32,13,-0.9,-2,1.4
C#CC1(O)CC(C)N(C)C(C)C1 (stereo not given),-3.2,5,1.5,-12,-11,1.0,-4,0.3
COc1ccc(CN(CC(=O)NCc2ccc3c(c2)OCO3)C(=O)c2csnn2)cc1,3.7,3,-4.1,-10,-3,0.6,-2,-0.3
CC1=C(/C=C/C(C)=C/C=C/C(C)=C\C(=O)O)C(C)(C)CCC1,?,-17,1.1,/,5,1.7,4,19
CCn1c(SCC(=O)Nc2ccc3c(c2)OCO3)nnc1-c1cnccn1,-0.3,3,-5.0,?,-3,0.0,1,-0.4
CC(C)(C)NC(=O)NC(=O)COC(=O)c1cccc(S(=O)(=O)N2CCCCC2)c1,6.5,5,-6.3,-16,-30,0.5,3,3.6
N#Cc1c(-c2ccc([N+](=O)[O-])cc2)nc2n(c1=O)CCS2,-2.5,-7,-1.7,-4,13,2.7,-4,1.8
CCOc1ccc(C(=O)COC(=O)c2cc([N+](=O)[O-])ccc2N2CCOCC2)cc1,-0.1,15,4.6,/,10,-0.1,9,7.1
O=C1CCC([N+](=O)[O-])C(c2ccc(Cl)cc2Cl)N1 (stereo not given),4.2,-14,0.0,7,1,0.2,-1,0.5
Fc1ccc(Cl)cc1/C=N/n1cnnc1SCc1ccccc1,1.5,-7,2.3,2,8,0.5,-4,/
[2H]C(CCOS(N)(=O)=O)c1ccc(C(C)(C)C)cc1 (stereo not given),?,0,0.9,3,4,0.6,-4,3.8
COc1ccc(Cl)cc1NC(=O)CN(C)C(=O)CCSc1ccc(C)cc1,/,-6,-1.9,/,/,-1.3,-3,2.8
CCC(=O)Nc1ccc(-c2nc3ccccc3c(=O)o2)cc1,-2.0,/,/,-7,-11,/,2,-206
CC(=O)Nc1cccc(C(=O)OC(C)C(=O)NCc2ccc3c(c2)OCO3)c1 (stereo not given),-3.7,-9,-16,-3,-2,-0.9,-3,2.2
COc1cccc(C2CC(c3ccc(Cl)cc3)Nc3nc(N)nn32)c1 (stereo not given),-1.8,-13,-3.2,5,28,0.1,0,1.5
c1cc2c(cc1Cn1cnnn1)OCO2,7.0,-2,-2.4,5,10,0.5,4,-1.4
N#Cc1nc(-c2ccccc2)oc1NCC1CCCO1 (stereo not given),?,5,-2.4,2,-7,-0.1,-7,-219
O=C(NCC(=O)N1CCN(C(=O)c2ccccc2)CC1)c1ccccc1,/,-5,9.5,/,/,0.3,-8,0.9
COc1ccc(C(=O)NNC(=S)NC(=O)c2ccccc2)cc1,5.1,11,3.6,97*,20,1.0,7,/
CCn1ncc(Cl)c1C(=O)NC(=S)Nc1c(C)cc(C)cc1[N+](=O)[O-],-8.1,5,/,6,-16,1.1,1,-0.4
CCN(CC)S(=O)(=O)c1cccc(C(=O)OCC(=O)c2ccc3c(c2)NC(=O)CO3)c1,1.6,-3,-1.9,16,-7,-0.6,2,1.0
Cc1cc(C(=O)Nc2nc3c(C)cccc3s2)c(C)o1,2.4,0,-0.9,22,6,-3.3,-3,-4.0
O=C(NCc1ccco1)c1cc2cc3ccc(Cl)cc3nc2o1,-0.8,1,-1.7,-5,8,-0.8,14,-13
Cc1ccc(C2(C)NC(=O)N(CC(=O)Nc3cc(S(=O)(=O)N4CCOCC4)ccc3C)C2=O)cc1 (stereo not given),3.4,-3,-1.2,-5,6,0.3,5,1.9
CC12CCC(=O)N1C(C(=O)O)Cc1c2[nH]c2ccccc12 (stereo not given),-4.8,0,0.3,-5,-14,0.6,5,3.3

# A section of the results above:
SMILES,RanGTP-Impb inh,Beta apoptosis,LANA-H2A inh,Calb FLC,T cruzi inh,Bfl-1 A1 inh,B2AR ag,UCH37 inh
Cc1ccc(C2(C)NC(=O)N(CC(=O)Nc3cc(S(=O)(=O)N4CCOCC4)ccc3C)C2=O)cc1 (stereo not given),3.4,-3,-1.2,-5,6,0.3,5,1.9
CC12CCC(=O)N1C(C(=O)O)Cc1c2[nH]c2ccccc12 (stereo not given),-4.8,0,0.3,-5,-14,0.6,5,3.3

# Going on with the list.
SMILES,RanGTP-Impb inh,Beta apoptosis,LANA-H2A inh,Calb FLC,T cruzi inh,Bfl-1 A1 inh,B2AR ag,UCH37 inh
Nc1c(C(=O)O)sc2nc(-c3ccccc3)cc(-c3ccccc3)c12,-23,-2,3.5,-7,-2,-0.1,-22,-1.5
COc1cc(CN2CCCCCC2)cc([N+](=O)[O-])c1O,?,3,1.2,-1,-5,0.2,7,2.5
Cc1ccc(S(=O)(=O)N(CC(=O)NCC2CCCO2)c2cccc([N+](=O)[O-])c2)cc1 (stereo not given),-2.2,-2,-1.5,38,-3,0.9,-8,1.8
CC1CC(C)CN(C(=O)C2CC(=O)N(c3ccc(F)cc3)C2)C1 (stereo not given),0.1,1,-1.3,1,8,-0.6,-4,0.2
COc1cc(OC)cc(C(=O)/C=C2\Sc3ccccc3N2C)c1,1.5,3,-1.8,-2,29,-1.7,-4,-25
COc1ccc(/C(=N\Nc2ccccc2C(=O)O)c2ccccc2)cc1,-1.7,-7,5.7,54,11,-0.8,-3,/
COc1ccc(CN(C(=O)CSc2nnc(-c3ccc(F)cc3)o2)c2ccc(F)cc2)cc1,0.0,-3,-2.3,15,13,0.7,-3,0.2
Cc1cccc(C(C)C)c1NC(=O)CSc1cccc[n+]1[O-],/,-7,5.1,/,/,-0.6,-3,0.4
CCn1c(O)c(C=NC2CCCC2)sc1=S,2.0,4,-1.7,-15,-13,-1.3,-6,5.2
O=C(NC1CC(=O)N(c2cccc(F)c2)C1)N1CCN(C(=O)c2ccco2)CC1 (stereo not given),0.9,2,2.6,0,-4,-0.2,0,-1.6
O=C(Nc1ccc(-c2nc3ncccc3o2)cc1)c1ccc(Br)o1,-0.1,3,17,33,6,-0.7,40,-148
O=C(N/N=C/c1ccncc1)c1cc2ccccc2o1,-2.2,-4,1.4,-9,11,0.0,-2,/
CC(C)(C)OC(=O)[C@H]1[C@H](c2ccc([N+](=O)[O-])cc2)C2(C(=O)c3ccccc3C2=O)C2c3ccccc3C=NN21 (stereo not given in full),1.7,3,-5.1,-9,-7,0.0,0,8.1
CCOP(=O)(OCC)C(Nc1ccccc1)c1cc(OC)ccc1OC (stereo not given),-1.5,-11,-1.7,-6,-16,-0.5,13,2.7
O=C(O)CSCC(=O)Nc1ccc(Br)c(C(F)(F)F)c1,0.5,6,1.3,-1,/,0.2,2,0.7
CCN1CCN(S(=O)(=O)c2cc(C(=O)O)ccc2Cl)CC1,3.7,-4,-3.4,4,-9,-0.2,-3,-0.9

# 14 entries from above, arranged by formula weight, descending.
SMILES,RanGTP-Impb inh,Beta apoptosis,LANA-H2A inh,Calb FLC,T cruzi inh,Bfl-1 A1 inh,B2AR ag,UCH37 inh
CC(C)(C)OC(=O)[C@H]1[C@H](c2ccc([N+](=O)[O-])cc2)C2(C(=O)c3ccccc3C2=O)C2c3ccccc3C=NN21 (stereo not given in full),1.7,3,-5.1,-9,-7,0.0,0,8.1
COc1ccc(CN(C(=O)CSc2nnc(-c3ccc(F)cc3)o2)c2ccc(F)cc2)cc1,0.0,-3,-2.3,15,13,0.7,-3,0.2
Cc1ccc(S(=O)(=O)N(CC(=O)NCC2CCCO2)c2cccc([N+](=O)[O-])c2)cc1 (stereo not given),-2.2,-2,-1.5,38,-3,0.9,-8,1.8
O=C(NC1CC(=O)N(c2cccc(F)c2)C1)N1CCN(C(=O)c2ccco2)CC1 (stereo not given),0.9,2,2.6,0,-4,-0.2,0,-1.6
CCOP(=O)(OCC)C(Nc1ccccc1)c1cc(OC)ccc1OC (stereo not given),-1.5,-11,-1.7,-6,-16,-0.5,13,2.7
O=C(O)CSCC(=O)Nc1ccc(Br)c(C(F)(F)F)c1,0.5,6,1.3,-1,/,0.2,2,0.7
Nc1c(C(=O)O)sc2nc(-c3ccccc3)cc(-c3ccccc3)c12,-23,-2,3.5,-7,-2,-0.1,-22,-1.5
CCN1CCN(S(=O)(=O)c2cc(C(=O)O)ccc2Cl)CC1,3.7,-4,-3.4,4,-9,-0.2,-3,-0.9
COc1cc(OC)cc(C(=O)/C=C2\Sc3ccccc3N2C)c1,1.5,3,-1.8,-2,29,-1.7,-4,-25
CC1CC(C)CN(C(=O)C2CC(=O)N(c3ccc(F)cc3)C2)C1 (stereo not given),0.1,1,-1.3,1,8,-0.6,-4,0.2
CC12CCC(=O)N1C(C(=O)O)Cc1c2[nH]c2ccccc12 (stereo not given),-4.8,0,0.3,-5,-14,0.6,5,3.3
COc1cc(CN2CCCCCC2)cc([N+](=O)[O-])c1O,?,3,1.2,-1,-5,0.2,7,2.5
O=C(N/N=C/c1ccncc1)c1cc2ccccc2o1,-2.2,-4,1.4,-9,11,0.0,-2,/
CCn1c(O)c(C=NC2CCCC2)sc1=S,2.0,4,-1.7,-15,-13,-1.3,-6,5.2

# Screening data as filed in PubChem BioAssay.
